Screens deposited in PubChem by National Center for Advancing Translational Sciences (NCATS).
HPGD inh: qHTS Assay for Inhibitors of HPGD (15-Hydroxyprostaglandin Dehydrogenase). 15-hydroxyprostaglandin dehydrogenase [NAD(+)] (Homo sapiens), P15428. purified HPGD, NADH fluorescence kinetic, PGE2 substrate. Potency, µM, inactives show top-dose activity change, negative = inhibition, most hits filed as inhibitors. hit rate 4.3% among 150,000. AID 894, 2007; active = well fitted inhibition curve with a large enough effect (not every such curve was filed as active); inconclusive = small, poorly fitted or top-dose-only effect, or another doubt; inactive = no such curve, though single readings can be large or run the other way;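 also: top concentration of the series not given in the record; plate controls included wells without enzyme; inactives centre near -10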
Target sequence (P15428 whole entry, looked up): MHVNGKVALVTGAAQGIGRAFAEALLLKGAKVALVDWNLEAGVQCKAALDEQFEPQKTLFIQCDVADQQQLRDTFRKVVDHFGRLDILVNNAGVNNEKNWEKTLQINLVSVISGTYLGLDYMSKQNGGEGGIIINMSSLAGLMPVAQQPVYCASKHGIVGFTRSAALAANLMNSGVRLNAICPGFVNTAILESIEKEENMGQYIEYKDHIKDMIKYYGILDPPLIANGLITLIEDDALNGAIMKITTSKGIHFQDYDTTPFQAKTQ
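20 nM HPGD preincubated 15 min at room temperature with compound in 50 mM Tris-HCl pH 8, 0.01% Tween 20. Started with 1 mM NAD+ and 30 uM prostaglandin E2; NADH fluorescence (360/450 nm) read 5 times over 30-s intervals, last minus first.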
An asterisk follows results filed as active; ? = inconclusive. % is scaled to controls: 0 for no effect and ±100 for the full control effect; potency is read from the fitted curve at half-maximal effect.

Start of the data: the first 3 records, ahead of the listing:
HPGD inh,SMILES
-27%,CCCC/C(C)=N/NC(=O)c1cn(-c2ccccc2)nc1-c1ccccc1
-10%,CCOC(=O)C1C(c2cccs2)NC(=O)N(C)C1(O)C(F)(F)F (configuration not stated)
?,Cc1nn(-c2cccc(Cl)c2)c2nc(C(F)(F)F)[nH]c(=O)c12

This part in full (from the top)
HPGD inh,SMILES
-27%,CCCC/C(C)=N/NC(=O)c1cn(-c2ccccc2)nc1-c1ccccc1
-10%,CCOC(=O)C1C(c2cccs2)NC(=O)N(C)C1(O)C(F)(F)F (configuration not stated)
?,Cc1nn(-c2cccc(Cl)c2)c2nc(C(F)(F)F)[nH]c(=O)c12
-18%,C=CCNS(=O)(=O)c1ccc2nsnc2c1
-2%,CCOCc1cnc(C)nc1NCC(=O)c1c(C)[nH]c2cc(C)ccc12
16µM*,COCCOC(=O)C1=C(C)NC(SCC(=O)NC(C)(C)C)=C(C#N)C1c1ccco1 (configuration not stated)
-20%,O=C(CN(CCc1ccccc1)C(=O)Cn1nnc(-c2cccs2)n1)NCc1ccco1
-13%,Cc1ccc(-n2ncc3c(=O)n(CC(=O)N4CCCc5ccccc54)cnc32)cc1C
?,CCC1SC2=NC(C)=C(C(=O)OCCOC)C(/C=C/c3ccccc3OC)N2C1=O (configuration not stated)
-9%,O=C(NNC(=O)c1cccc(S(=O)(=O)N2CCN(c3ccccc3)CC2)c1)c1ccc(Cl)cc1
-4%,Fc1cccc(C2NC(=S)NC3=C2N2CCC3CC2)c1 (configuration not stated)
3%,CCCOc1ccccc1C(=O)NCCCC(=O)O
-1%,Cc1cc(NC(=O)COC(=O)C2CCCN2C(=O)c2cccs2)no1 (configuration not stated)
-24%,CCCCC[C@H](O)/C=C/[C@@H]1[C@@H](C/C=C\CCCC(=O)O)[C@H](O)C[C@H]1O
1%,COC(=O)C1=C(C(=O)OC)[C@@H]2Nc3ccccc3[C@@]23C[C@@H](C(=O)OC)N(S(=O)(=O)c2cccs2)C3=N1

Given comma-delimited: part of the list above.
structure,HPGD inh
COCCOC(=O)C1=C(C)NC(SCC(=O)NC(C)(C)C)=C(C#N)C1c1ccco1 (configuration not stated),16µM*
O=C(CN(CCc1ccccc1)C(=O)Cn1nnc(-c2cccs2)n1)NCc1ccco1,-20%
Cc1ccc(-n2ncc3c(=O)n(CC(=O)N4CCCc5ccccc54)cnc32)cc1C,-13%
CCC1SC2=NC(C)=C(C(=O)OCCOC)C(/C=C/c3ccccc3OC)N2C1=O (configuration not stated),?
O=C(NNC(=O)c1cccc(S(=O)(=O)N2CCN(c3ccccc3)CC2)c1)c1ccc(Cl)cc1,-9%

Retrieved by structure from the entries so far:
HPGD inh,SMILES
-20%,O=C(CN(CCc1ccccc1)C(=O)Cn1nnc(-c2cccs2)n1)NCc1ccco1
1%,COC(=O)C1=C(C(=O)OC)[C@@H]2Nc3ccccc3[C@@]23C[C@@H](C(=O)OC)N(S(=O)(=O)c2cccs2)C3=N1
-4%,Fc1cccc(C2NC(=S)NC3=C2N2CCC3CC2)c1 (configuration not stated)

Next part.
HPGD inh,SMILES
-6%,O=C(NCc1ccc2c(c1)OCO2)c1cc2c(s1)CS(=O)(=O)C2
-6%,Cc1cc(NC(=O)c2ccc(Cn3nc(C)c(Br)c3C)o2)no1
-6%,CCOc1ccc(Br)cc1S(=O)(=O)Nc1ccc(Cl)c(S(=O)(=O)N(CC)c2ccccc2)c1
25µM*,O=C(c1ccccc1)c1ccc(N2CCOCC2)c(F)c1
-7%,O=S(=O)(c1ccccc1F)N1CCN(Cc2nc3ccccc3[nH]2)CC1
-8%,CCOC(=O)Nc1cc(OCC)c(NC(=O)C2CC2)cc1OCC
-11%,Cc1nc2cc(N=NC3=C(O)CCCC3=O)ccc2s1
1%,Cc1nc(CS(=O)(=O)c2ccccc2)cc(N2CCOCC2)n1
-22%,O=C(COC(=O)CCCOc1ccc(Cl)cc1Cl)Nc1cccc(Cl)c1
-4%,O=C(c1ccccc1)N1CCN(C2CC3CCC2C3)CC1 (configuration not stated)
-8%,C/C(Nc1cccc(F)c1)=C(/C#N)C(N)=O
?,COc1cc(/C=N/NC(=O)CNc2n[nH]c(=O)[nH]c2=O)ccc1O
1%,CC(=O)Nc1ccc(S(=O)(=O)N2CCN=C2C)cc1
-3%,CCCN(Cc1ccccc1)C(=S)Nc1cccc(C(F)(F)F)c1
-3%,COc1ccc(S(=O)(=O)NCCc2ccc(F)cc2)cc1
0%,Cc1ccc(N(CC(=O)NCc2ccc(F)cc2)S(=O)(=O)c2cccs2)cc1
-17%,COc1ccccc1N1CCN(C(c2ccccc2)c2nnnn2CCc2ccccc2)CC1 (configuration not stated)
-13%,CC(=O)Nc1ccc(N2CCOCC2)c(C(=O)Nc2cccc(C)c2)c1
-7%,O=C(CN1CCN(c2ccccn2)CC1)Nc1ccc2ccccc2c1
-3%,Nc1ncnc2nc(N3CCN(CCO)CC3)[nH]c12
-12%,O=C(Nc1cccc(Cl)c1)OCc1cncs1
-17%,NC1=NC(c2cn(-c3ccccc3)nc2-c2cccs2)n2c(nc3ccccc32)N1 (configuration not stated)
-12%,CC(C)CC(=O)Nc1ncnc2c1C(=O)CC(C)(C)C2
-6%,O=C1N2CCSC2=NC1(Nc1ccccn1)C(F)(F)F (configuration not stated)
-12%,O=C1c2ccccc2C(=O)C12OC(c1ccccc1)C1(C(=O)c3ccccc3C1=O)C2c1cccc([N+](=O)[O-])c1 (configuration not stated)
-13%,O=C(Cn1cnc2ccccc21)NCCCN1CCOCC1
-9%,CCn1cc(C(=O)N2CCn3c(nc4ccccc43)C2)c(=O)c2ccc(C)nc21
-5%,CCCNS(=O)(=O)c1ccc(OCC(=O)Nc2ccc3c(c2)OCCO3)cc1
-3%,N#Cc1ccc(C23CC4(C2)[C@H](CN(Cc2ccc(-c5ccccc5)cc2)[C@@H]4c2ccccc2)C3c2ccccc2)cc1 (some centres not stated)
-10%,CC(/C=C/c1ccco1)=N/NC(=O)OC(C)(C)C
7.1µM*,CC(=O)Nc1ccc(S(=O)(=O)NCC2CCC(C(=O)N3CCCCCC3)CC2)cc1 (configuration not stated)
-11%,Cc1ccc(-c2noc(CN3CCN(C(c4ccccc4)c4ccccc4)CC3)n2)cc1
-11%,CC(C)c1ccc(-n2cccc2/C=C2/C(=N)N3C=CSC3=NC2=O)cc1
-5%,COc1ccc(S(=O)(=O)Nc2ccccc2-c2nnn(CC(=O)Nc3ccccc3OC)n2)cc1
-21%,O=C(O)C1C2C=CC(O2)C1C(=O)NC1CCCc2ccccc21 (configuration not stated)
1%,CCN1CCN(S(=O)(=O)c2cc(C)c(OC)cc2C)CC1
-14%,CN(Cc1cc2ccccc2[nH]c1=O)S(C)(=O)=O
-8%,Cc1ccc(-c2csc3nc(SCC(=O)N(C)C)n(Cc4ccccc4)c(=O)c23)cc1
-1%,COc1ccccc1N1CCN(CC(=O)Nc2c(C)n[nH]c2C)CC1
-15%,Cn1c(CN2CCN(c3ccc(Cl)cc3)CC2)nc2ccccc21
-25%,O=C(NCc1ccccc1)c1c(O)c2cccc3c2n(c1=O)CCC3
-5%,O=C(NCc1cccnc1)C(=O)NCC(c1ccco1)N1CCN(c2ccccc2)CC1 (configuration not stated)
2%,CCSc1nnc(-c2cccnc2)n1Cc1ccco1
?,Cc1cc(/C=C2\SC(=S)N(Cc3ccco3)C2=O)c(C)n1-c1ccccc1
14µM*,Nn1c(SCc2cccc3ccccc23)nnc1-c1ccco1

Looked up above.
`CC(C)c1ccc(-n2cccc2/C=C2/C(=N)N3C=CSC3=NC2=O)cc1` @ HPGD inh = -11%
`CCSc1nnc(-c2cccnc2)n1Cc1ccco1` @ HPGD inh = 2%
`CCN1CCN(S(=O)(=O)c2cc(C)c(OC)cc2C)CC1` @ HPGD inh = 1%
`Cc1ccc(-c2noc(CN3CCN(C(c4ccccc4)c4ccccc4)CC3)n2)cc1` @ HPGD inh = -11%

Other results follow:
HPGD inh,SMILES
-13%,COc1cc(Cl)ccc1S(=O)(=O)n1nc(C)cc1C
-13%,CCOc1nc(C)ccc1-c1noc(-c2ccccc2OC)n1
-13%,O=[N+]([O-])c1cc(Cl)ccc1NCCNc1ncc(C(F)(F)F)cc1Cl
-6%,CC(C)NC(=O)[C@H](CSCc1ccccc1)N1Cc2ccccc2C1=O
-1%,O=C(c1ccco1)N(Cc1ccco1)c1ccc(O)cc1
-9%,CCOC(=O)/C(=N/Nc1ccc(Cl)cc1)S(=O)(=O)c1ccc(Cl)cc1
1%,Cc1cccc(-c2nnc3n2N=C(c2ccc(Br)cc2)CS3)c1
2%,C[C@H](CCC(=O)NCC(=O)O)[C@H]1CC[C@H]2[C@H]3[C@@H](C[C@@H](O)[C@]12C)[C@]1(C)CC[C@H](O)C[C@@H]1C[C@@H]3O
?,CCCS(=O)(=O)c1c(S(=O)(=O)CCC)c2ccccn2c1C(=O)OC
-23%,COc1ccc(C(=O)N/N=C(\C)c2ccc3c(c2)C2C=CCC2C(c2ccccc2)N3)cc1 (configuration not stated)
-7%,CCOC(=O)c1sc(NC(=O)c2cccc(S(=O)(=O)N3c4ccccc4CC3C)c2)cc1C (configuration not stated)
-10%,Cc1nc2cnc(Oc3ccccc3)nc2n(-c2ccccc2)c1=O
-7%,c1ccc(-n2nnnc2SCc2ccccn2)cc1
-9%,O=C(NCCC1=CCCCC1)C1CCN(S(=O)(=O)c2ccc(Br)s2)CC1
-17%,CC(C)COC(=O)c1ccc(NC(=O)C2C3C=CC(C3)C2C(=O)O)cc1 (configuration not stated)
-16%,CCc1nc2c(cnn2-c2ccc(Cl)cc2)c(=O)n1-c1ccc(OC)cc1
-6%,CCN(CC)S(=O)(=O)c1cccc(NC(=O)C2SC(=Nc3ccc(C)cc3C)C(C(=O)NCC3CCCO3)=C2N)c1 (configuration not stated)
-13%,NC(=O)C(c1ccc(Cl)cc1)c1ccc(Sc2ccccc2)nn1 (configuration not stated)
-1%,COc1ccc(Cl)cc1NC(=O)CSc1nnc(CN2CCOCC2)n1-c1ccc(Cl)cc1
-23%,CCOC(=O)C1=C(O)/C(=C/c2ccc(OCC(=O)O)c(OC)c2)SC1=Nc1ccc(OC)cc1
-12%,CC(=O)NCCNC(=O)[C@H](Cc1ccccc1)NC(=O)c1cccs1
-5%,COc1ccccc1C(=O)C(O)c1ccccc1OC (configuration not stated)
-5%,COc1ccc(OCc2nc(N)nc(Nc3ccccc3)n2)cc1
-5%,Cc1cccc(/C=C/c2ccccc2)n1
-9%,COC(=O)c1ccccc1NC(=O)c1cccc(NC(=O)c2ccc(Br)o2)c1C
4%,CC1(C)Cc2ccccc2-c2nnc(SCC(=O)Nc3ccc4c(c3)OCO4)n21
18µM*,COc1ccc(CCNc2oc(COc3ccccc3F)nc2C#N)cc1
-13%,COC(=O)[C@@]1(Cc2ccc(F)cc2)[C@H]2c3cc(C(=O)N4CCCC4)n(Cc4ccccc4)c3C[C@H]2CN1C(=O)c1ccccc1
-12%,COc1cc2[nH]c(=S)n(Cc3ccco3)c(=O)c2cc1OC
2%,NC(=O)CSCc1c(Cl)cccc1Cl
0%,c1ccc2c(c1)OCCOCCOc1ccccc1OCCOCCO2
13µM*,O=C(CSCc1cccc(Cl)c1)NCc1ccc2c(c1)OCO2
-4%,CCN(CC)C(=O)C(=O)N/N=C/c1ccc(C(=O)OC)cc1
-16%,c1ccc(CCNc2ncnc3scc(C4COc5ccccc5O4)c23)cc1 (configuration not stated)
-5%,c1ccc(CNc2ncnc3nc[nH]c23)nc1
1%,CS(=O)(=O)N1CCN(C(=O)c2cccnc2)CC1
?,CCOC(=O)c1c(-c2ccc(C)o2)csc1NC(=O)COC(=O)c1ccc(NC(N)=O)cc1
-6%,COc1cccc(C(=O)/C=C/c2ccc(N3CCCCC3)c([N+](=O)[O-])c2)c1
-6%,O=C(COc1ccc2ccccc2c1Br)N1CCN(c2ccccn2)CC1
-5%,O=C(CSc1nc(-c2ccccc2)nc2c1Cc1ccccc1O2)Nc1ccccc1
-12%,CC(=O)/C(C)=N\O
-13%,Cc1ncc(CSc2ccccc2N)c(CO)c1O
-9%,O=C(Nc1cccc([N+](=O)[O-])c1)c1ccc(CN2CCOCC2)cc1
-4%,COc1ccc(CCNC(=O)CN(c2ccc(OC)c(OC)c2)S(C)(=O)=O)cc1
1%,C=C(C)CSc1nc(N)cc(=O)[nH]1
-13%,CC(C)/C=N/Nc1nc(-c2ccc(Br)cc2)cs1
-1%,COc1ccc(C(=O)N2CCC3(CCN(C)CC3)CC2)cc1
-7%,COc1ccccc1C1CN=NC12CCCc1ccccc1C2=O (configuration not stated)
?,COCCNc1oc(-c2ccc(F)cc2)nc1C#N
-5%,COC(=O)Cn1c(CN2CCN(c3ccc(F)cc3)CC2)nc2c1c(=O)n(C)c(=O)n2C
-6%,COc1ccc(CCNC(=O)c2ccccc2NC(=O)c2ccco2)cc1OC
-2%,CCOC(=O)CSc1nc2c(c(=O)n1-c1ccc(OCC)cc1)SCC2
2%,O=C(CN1CCC(n2nnc3ccccc32)CC1)Nc1ccc2c(c1)CCC2
-18%,CCc1ccc2c(c1)cc(CN(C(=S)Nc1ccccc1C)C1CC1)c1nnnn12
3%,COc1ccc(OC)c(S(=O)(=O)n2cccn2)c1
-6%,O=C(CNc1cccc2ccccc12)N/N=C/C(Br)=C/c1ccccc1
-7%,CC(C)C1=CC2=CC[C@@H]3[C@](C)(CO)CCC[C@]3(C)C2CC1 (some centres not stated)
?,Cc1cccc(NC(=O)c2cnc3scc(C)n3c2=O)c1
-8%,COc1ccc(CCn2nnc(-c3ccc(NC(C)=O)c(Cl)c3)n2)cc1

Only part of the results is shown (hit frequency here may not be typical).
